Cruzain Triton – cruzain (T. cruzi) inhibition with detergent | P25779 | purified cruzain, Z-FR-AMC fluorescence, 0.01% Triton | Potency, µM, inactives show max response, negative = inhibition, usual class: inhibitors | 200,000 tested, 0.43% active;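 further: plate controls were neutral wells for no effect and buffer without enzyme for full effect; nearly all actives have a fitted effect of over 40% in size; top concentration of the series not given in the record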
Target sequence (P25779 123-467 limits assumed): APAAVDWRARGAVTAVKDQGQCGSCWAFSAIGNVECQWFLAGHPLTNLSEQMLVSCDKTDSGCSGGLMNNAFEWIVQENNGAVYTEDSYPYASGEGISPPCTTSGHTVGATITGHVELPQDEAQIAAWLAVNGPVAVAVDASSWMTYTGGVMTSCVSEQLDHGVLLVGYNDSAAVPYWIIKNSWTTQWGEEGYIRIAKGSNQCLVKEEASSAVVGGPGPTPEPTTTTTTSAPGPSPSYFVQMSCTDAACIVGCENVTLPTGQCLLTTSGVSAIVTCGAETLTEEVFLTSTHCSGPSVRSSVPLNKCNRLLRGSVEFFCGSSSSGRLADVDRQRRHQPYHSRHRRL
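Enzyme 1.5 nM, Z-FR-AMC 2 uM, NaOAc 100 mM pH 5.5, DTT 5 mM, Triton X-100 0.01%; 15 min RT compound preincubation; kinetic ex360/em450, 60 s delta.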
SARS PLpro yeast – SARS-CoV PLP inhibition in yeast; S. cerevisiae expressing SARS-CoV PLpro, growth rescue; control for the full effect not named in the record; Potency, µM (top dose mostly 32.9 µM), inactives show at the top dose activity, positive = growth rescue; 330,000 tested, 0.19% active; active means well fitted rising curve with a large enough effect; inconclusive means small, poorly fitted or top-dose-only effect; inactive means no such curve, though single readings can be large or run the other way; further: 0% is about no effect; nearly all actives have a fitted effect of over 55% in size; growth read by luminescence after 48 h
Cruzain inh noDet – inhibitors of Trypanosoma cruzi cruzain without detergent. P25779. purified cruzain, Z-FR-AMC fluorescence, no detergent. Potency, µM, for inactives: max response, negative = inhibition, hits mostly inhibitors. 200,000 tested, 2.3% active. AID 1476;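 further: plate controls were enzyme without inhibitor for no effect and buffer without enzyme for full effect; nearly all actives have a fitted effect of over 40% in size; top concentration of the series not given in the record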
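Detergent-free condition (0.00005% Triton X-100) in acetate buffer pH 5.5 with DTT. 1.5 nM enzyme and compound were pre-mixed 15 min, then 2 uM Z-FR-AMC substrate added; reaction progress from fluorescence change between first and third reads (60 s).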
RE007 growth inh – less growth of the S. pombe RE007 Vpr strain. S. pombe RE007 Vpr strain, BacTiter-Glo ATP luminescence, 24 h; control for the full effect not named in the record. Potency, µM (highest dose often 92.2 µM), for the others: top-dose activity change, negative = less growth. 360,000 tested, 0.21% active. AID 651644; active = well fitted falling curve with a large enough effect; inconclusive = small, poorly fitted or top-dose-only effect; inactive = no such curve, though single readings can be large or run the other way;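 further: on the % scale 0 is the no-effect control and ±100 the full control effect; nearly all actives have a fitted effect of over 50% in size; the assay follows cell death caused by Vpr and the record does not say whether a fall means rescue or toxicity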
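Fission yeast RE007 carrying one integrated HIV-1 vpr copy, seeded at OD 0.01 in PMG+AL medium with 23 nL pinned compound. Grown 24 h at 30 degrees; viability read by BacTiter-Glo luminescence after 5 min.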
Marburg entry inh – Marburg virus entry inhibition; Marburg virus pseudotyped entry inhibition, cell reporter; control for the full effect not named in the record; about a third of the inactives were read at about 46 µM; Potency, µM (top dose mostly 37.8 µM), for the others: at the highest dose activity change, negative = inhibition, actives largely listed as inhibitors; 300,000 tested, 1.8% active; AID 540276; active = well fitted inhibition curve with a large enough effect; inconclusive = small, poorly fitted or top-dose-only effect, or effect the other way; inactive = flat fitted curve, though single readings scatter; tested in HEK293 cells; about a fifth of its hits are not listed in these tables; further: on the % scale 0 is the no-effect control and ±100 the full control effect; luciferase read-out
Lassa entry inh – blocks Lassa virus binding to or entry into cells. Lassa virus pseudotype entry inhibition, cell reporter; control for the full effect not named in the record. AID 540256. 300,000 tested, 1.2% active. Potency, µM (top dose mostly 37.9 µM), inactives show top-dose activity change, negative = inhibition, usual class: inhibitors; active means well fitted inhibition curve with a large enough effect; inconclusive means small, poorly fitted or top-dose-only effect, or effect the other way; inactive means flat fitted curve, though single readings scatter; tested in HEK293 cells; further: on the % scale 0 is the no-effect control and ±100 the full control effect; nearly all actives have a fitted effect of over 50% in size; luciferase read-out
NS1 inh – blocks influenza NS1 protein function. AID 2326. 270,000 tested, 0.4% active. Potency, µM (doses to about 46.1 µM), inactives show at the top dose activity, positive = more growth. S. cerevisiae slowed by influenza A NS1, growth recovery by OD600; active means well fitted rising curve with a large enough effect; inconclusive means small, poorly fitted or top-dose-only effect; inactive means no such curve, though single readings can be large or run the other way; further: nearly all actives have a fitted effect of over 50% in size
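Compounds were scored for reversing the slow growth caused by influenza A NS1 in S. cerevisiae, measured by optical density at 600 nm. Assay medium contained 2% galactose at pH 6.0; NS1-free yeast of the same strain were the positive control.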
StopGo reporter – FMDV 2A StopGo reporter, luciferase signal | 410,000 tested, 1.2% active | human cells with a luciferase reporter of 2A StopGo recoding; control for the full effect not named in the record | Potency, µM (doses to about 57.9 µM), for inactives: top-dose signal change, negative = less light | AID 1159524; active = well fitted falling curve with a large enough effect; inconclusive = small, poorly fitted or top-dose-only effect; inactive = no such curve, though single readings can be large or run the other way; tested in HEK293T cells; further: on the % scale 0 is the no-effect control and ±100 the full control effect; nearly all actives have a fitted effect of over 45% in size; luciferase light after 4 h
Starred values were filed as active, the others as inactive; u = inconclusive; x = no result given; & = joins results of further samples; [ ] = remark or other dose. Unless noted, the call rests on the fitted dose curve; in most records, active means well fitted curve in the direction sought with a large enough effect; inconclusive means small, poorly fitted or top-dose-only effect, or another doubt; inactive means no such curve, though single readings can be large; an effect the other way counts as inactive or inconclusive. Potency means the concentration at half of the fitted maximal effect.

SMILES	Cruzain Triton	SARS PLpro yeast	Cruzain inh noDet	RE007 growth inh	Marburg entry inh	Lassa entry inh	NS1 inh	StopGo reporter
CSc1ccc(Cl)c(C(=O)OCC(=O)N2CCOCC2)c1	-1.7%	7.3%	16.4%	3.4%	-1.4%	-8.5%	-7.9%	-8.9%
COc1ccc2c(C)c(CC(=O)N3CCN(C(=O)C4COc5ccccc5O4)CC3)c(=O)oc2c1 (stereo not given)	x	1.6%	x	-0.4%	x	x	-2.5%	u
CC(C)C[C@H](NC(=O)c1[nH]cnc1C(=O)N[C@@H](C)C(=O)OC(C)(C)C)C(=O)OC(C)(C)C	x	-2.4%	x	-5.1%	-0.1%	x	-0.4%	-20.5%
CCN(CC)CCCN1C(=O)C(=O)/C(=C(/O)c2cc(C)ccc2C)C1c1cccnc1 (stereo not given)	1.9%	9.8%	-7.9%	12.3%	4.0%[46.1 µM]	-2.9%	4.7%	9.4%
Cc1cccc(-c2noc(-c3ccccc3C(=O)NCC3CCCO3)n2)c1 (stereo not given)	-0.5%	8.8%	20.2%	0.9%	-15.1%	-13.8%	-55.4%	-2.2%
Cc1csc(SCC(=O)NCc2cccc(Cl)c2)n1	x	-4.3%	x	-7.4%	x	x	-6.1%	-14.7%
COc1ccc(/C(N)=N/OC(=O)CC2CCCCC2)cc1OC	x	-1.9%	x	-0.1%	x	x	-33.4%	4.2%
COc1ccc(CCNC(=O)COc2ccc([N+](=O)[O-])cc2)cc1	x	-1.9%	x	4.7%	4.9%[46.1 µM]	-0.7%	-4.9%	-10.8%
CCC(C)(C)n1nnnc1CN1CCN(c2nc3ccc(C)cc3cc2C#N)CC1	-9.7%	-5.1%	11.1%	0.9%	-7.7%	-0.2%	10.6%	u
CC(=O)N1C=CN(C(C)=O)C(c2cn(C)c3ccccc23)C1c1cn(C)c2ccccc12 (stereo not given)	0.4%	1.4%	u	-9.4%	-18.0%	-7.9%	u	-15.6%
COCC1CCCCN1C(=O)c1ccc2oc(CCc3ccccc3)nc2c1 (stereo not given)	x	-0.4%	x	-7.5%	u	0.4%	-8.8%	7.0%
C[C@@]12CCC=C[C@H]1[C@H](c1ccc(F)c(/C=C/c3ccccc3)c1)N(Cc1ccccc1)C2=O	x	-2.2%	x	-0.8%	x	x	15.7%	-10.7%
Cc1cccc(/C=C/c2onc(C)c2S(=O)(=O)N2CCC(C(=O)NC(C)C)CC2)c1	x	-3.6%	x	11.1%	x	x	11.8%	-20.0%
c1ccc(CN2CCN(Cc3cn4cccnc4n3)CC2)cc1	x	-3.3%	x	-15.0%	0.2%[46.1 µM]	-2.2%[46.1 µM]	x	-19.5%
CC(NC(=O)COC(=O)c1cc([N+](=O)[O-])ccc1N1CCOCC1)c1ccc(F)cc1 (stereo not given)	x	5.9%	x	-0.3%	-8.4%[46.1 µM]	-15.2%	x	0.0%
CCOC(=O)c1cc(C(O)(C(F)(F)F)C(F)(F)F)c(/N=C/N(C)C)o1	-15.0%	4.2%	25.5%	12.7%	0.5%	-4.4%	8.8%	x
CCN(Cc1cc2ccccc2[nH]c1=O)C(=O)C(C)C	0.8%	4.1%	3.9%	0.6%	-13.3%[46.1 µM]	-18.1%	3.1%	-17.8%
Cc1cccc(C)c1NC(=O)CSc1nnc(NC(=O)c2ccccc2C(=O)O)s1	x	0.0%	x	10.5%	x	x	-1.5%	-6.3%
O=C(O)C1CC(=O)N(Cc2ccc(F)cc2)C1 (stereo not given)	8.1%	2.0%	0.3%	5.7%	-7.1%	2.0%	0.4%	-17.2%
O=C(COC(=O)CCS(=O)(=O)c1ccc(Cl)cc1)Nc1ncc(Cl)cc1Cl	-13.1%	-5.4%	-1.6%	-16.5%	0.2%&0.2%	16.7%	-12.1%	8.3%
CNc1ccc(-c2nc(-c3ccncc3)no2)cc1[N+](=O)[O-]	-4.7%	x	17.6%	x	13.5%[46.1 µM]	-1.3%[46.1 µM]	x	59.3%[activator]
Cn1c(=O)c2c(nc(CN3CCN(c4ccccc4F)CC3)n2CCN2CCOCC2)n(C)c1=O	1.1%	-3.9%	u	19.0%	0.2%	-21.6%	-16.6%	0.7%
COc1c(C)cc(S(=O)(=O)N2CCCC2)c(C)c1C	4.7%	-7.4%	5.6%	6.6%	-12.0%	6.3%	-7.7%	-1.9%
Cc1[nH]c2ccccc2c1C(=O)CN1CCCCC1CCO (stereo not given)	-2.4%	-0.5%	-10.7%	0.7%	17.0%	-4.6%	-3.4%	-15.1%
CC1=NN(C(=O)c2ccc(C)o2)C(O)(c2ccccc2)C1 (stereo not given)	0.9%	-19.8%	-4.9%	-7.4%	2.5%	2.8%	-1.2%	4.0%
Cn1ccnc1COc1ccc(C=O)cc1	x	-6.3%	x	-0.5%	-13.2%	11.9%	-18.5%	-2.7%
Cc1cccc(-c2nn3c(=O)cc(CN4CCN(C(=O)c5ccccc5Br)CC4)nc3s2)c1	1.3%	x	2.7%	x	x	-1.1%[46.1 µM]	x	-23.8%
Cc1c(N=C2SCC(=O)N2c2c(C)n(C)n(-c3ccccc3)c2=O)c(=O)n(-c2ccccc2)n1C	-3.4%	10.3%	5.3%	5.1%	10.7%	6.1%	1.3%	x
CCOC(=O)c1ccc(S(=O)(=O)NCCN(CC)CC)cc1	x	-1.3%	x	4.5%	-21.8%[46.1 µM]	-0.1%[46.1 µM]	x	-7.9%
CCOC(=O)C1CCN(CC(=O)Nc2c(C(=O)OC)[nH]c3cccc(Cl)c23)CC1	-2.4%	3.6%	7.7%	-6.8%	-22.9%	1.6%	-12.9%	-13.5%
CCOCCCN(Cc1ccco1)S(=O)(=O)c1cc2c(cc1C)NC(=O)CO2	1.6%	x	8.7%	x	x	-23.7%[46.1 µM]	x	19.6%
CCC(NC(=O)CCl)c1ccc(C)cc1 (stereo not given)	x	0.5%	x	17.1%	u	u	1.2%	u
CCN(C(=O)COC(=O)CCNS(=O)(=O)c1ccccc1F)c1c(N)n(Cc2ccccc2)c(=O)[nH]c1=O	x	-1.3%	x	-0.9%	-7.3%[46.1 µM]	-7.6%	x	-13.2%
CC(=O)c1cccc(NC(=O)c2ccc3c(c2)C(=O)N(Cc2cccnc2)C3=O)c1	x	-6.4%	x	4.0%	29.0%	4.7%	3.3%	-27.8%
CCCCNc1nc2c(c(=O)n(C)c(=O)n2C)n1Cc1cccc(OC)c1	-3.2%	14.4%	-3.7%	-6.0%	u	u	-9.9%	u
CCCOc1ccccc1C(=O)N(Cc1cccs1)C1CCS(=O)(=O)C1 (stereo not given)	6.0%	4.8%	2.4%	26.7%	-0.4%	18.1%	1.2%	0.0%
CCOc1cc(C(=O)NCCC(=O)N2CCC3(CC2)NCCc2[nH]cnc23)cc(OCC)c1OCC	x	-0.8%	x	-12.0%	x	x	-6.6%	17.2%
O=c1[nH]c2c(Br)cnc([N+](=O)[O-])c2[nH]1	x	3.4%	x	5.8%	6.7%	15.0%	1.3%	14.7%
S=C(NCCSCc1c(Cl)cccc1Cl)Nc1ccccc1	-10.8%	-34.7%	-16.3%	-27.1%	u	-10.0%	-124.2%	17.6%
CN(C[C@@H](Cc1cccc2ccccc12)N(C[C@H](Cc1ccccc1)N(CCc1ccccc1)N=O)N=O)N=O	x	0.2%	x	-9.0%	x	x	2.9%	-9.7%
COC(=O)Cc1ccc(NC(=S)Nc2cccc(C)n2)cc1	x	0.3%	x	-7.2%	u	x	-1.2%	36.1%[activator]
COC(=O)CC1=Nc2ccccc2NC(=O)C1	-5.6%	17.2%	-16.5%	13.3%	-24.2%	-3.3%	3.4%	8.6%
O=C(CCN1C(=O)c2ccccc2C1=O)Nc1ccccc1C(=O)N1CCOCC1	4.7%	-7.2%	2.6%	-9.3%	13.7%	0.8%	2.3%	-10.7%
O=c1c(Cc2ccc(F)cc2)c(O)ccn1C1CCCCC1	-0.8%	0.4%	-8.6%	5.2%	9.6%	-12.0%	10.1%	0.0%
CCC(=Nc1cccc(C(F)(F)F)c1)c1c(O)n(C)c(=O)n(C)c1=O	x	2.8%	x	3.5%	1.0%[46.1 µM]	-8.4%	-5.0%	-30.9%
CCN(CC)S(=O)(=O)c1ccc2c(c1)N(CC(=O)N1CCN(c3cccc(C(F)(F)F)c3)CC1)C(=O)CO2	-5.5%	x	u	x	x	-9.9%[46.1 µM]	x	u
Cc1ccc(C)n1-c1nnc(N2CCCC(C(=O)NCc3cccc(F)c3)C2)s1 (stereo not given)	-8.3%	x	-7.2%	x	-29.9%[46.1 µM]	-10.9%[46.1 µM]	x	-10.5%
CC(=O)C1=C(O)C(=O)N(Cc2ccco2)C1c1cccc(F)c1 (stereo not given)	x	1.5%	x	3.9%	1.4%	26.6%	x	15.5%
Cc1nc(SC2CC(=O)N(c3ccc([N+](=O)[O-])cc3)C2=O)nc2c1CCCC2 (stereo not given)	-8.0%	-6.5%	1.1%	-11.7%	13.6%	-6.7%	14.8%	0.0%
Cc1cc(NC(=O)CSc2nnc(-c3ccncc3)n2-c2ccccc2)no1	x	3.2%	x	-12.0%	17.0%	-1.8%	x	-9.6%

The results go on:
SMILES	Cruzain Triton	SARS PLpro yeast	Cruzain inh noDet	RE007 growth inh	Marburg entry inh	Lassa entry inh	NS1 inh	StopGo reporter
COc1cc(CNc2ccc3[nH]c(=O)[nH]c3c2)ccc1OCc1ccc(Cl)cc1	x	-0.1%	x	-2.3%	x	x	-1.5%	9.2%
Cc1ccc(NC(=O)CNC(=O)c2ccc(Oc3ccccc3)cc2)nc1	x	-3.0%	x	12.5%	11.8%	u	x	14.3%
COc1ccc(-c2cc(C(F)F)n3ncc(C(=O)N4CCc5ccccc54)c3n2)cc1	x	1.4%	x	-1.0%	x	x	6.4%	-16.5%
COC(=O)c1c(-c2cccs2)csc1NC(=O)c1cc(OC)c(OC)c(OC)c1	-9.9%	x	-6.9%	x	u	-15.6%[46.1 µM]	x	-20.9%
O=C(NCC1CCCO1)c1ccc(Cl)c(F)c1F (stereo not given)	-4.5%	7.1%	-1.4%	1.5%	3.1%	0.0%	-3.3%	46.4%[activator]
Cc1ccc(OCC(=O)Nc2ccc(-n3cnnn3)cc2)c(C)c1	x	2.9%	x	-18.4%	-11.8%	-13.0%	x	-7.5%
COCCN1CCN(Cc2cn(C)nc2-c2ccc(Oc3ccccc3)cc2)CC1	x	0.3%	x	-16.0%	x	x	-0.8%	22.5%
O=C(c1ccccc1F)N1c2nc(-c3ccco3)nn2C2(CCCCC2)[C@@H]2CCCC[C@@H]21	-5.0%	x	10.3%	x	u	6.0%[46.1 µM]	x	u
CCCCCCCOc1ccc(C2(C)NC(=O)NC2=O)cc1 (stereo not given)	x	0.4%	x	-1.1%	u	-10.5%	2.8%	-11.3%
